High-throughput results: PubChem, several laboratories
HNF4A DNA FP – change in binding of human HNF4 alpha to DNA. HNF4a-FITC DNA binding, fluorescence polarization, 1 h. activity change, % at 10 µM. 0.3% of 360,000 active. AID 1224865; in the data active means activity change above about 30%, passing the limit was not always enough;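 further: controls were the assay level and a saturating level of protein; the project sought stronger binding though the title names inhibitors; some compounds called inactive have numbers as strong as hits; positive values seem to mean higher polarization but the record does not say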
Bfl-1 A1 inh – inhibitors of the anti-apoptotic protein A1, read as caspase activation | MEF A1-2A-BIM cells, Caspase-Glo 3/7 luminescence, 3 h; percent of clofoctol response, vehicle zero | caspase activation, % (concentration not given with the values) | 0.066% of 330,000 active;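 active means over half of replicate activation scores above 10%, or exactly half above 10 with the replicate mean above 10; inconclusive means replicate mean below 10 yet half the replicates above 10; inactive means over half of replicates below 10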;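 further: wells of about 30 µL received 50 nL stock; many hits fall short of the cut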
UCH37 inh – inhibitors of human deubiquitinating enzyme UCH37; 0.33% of 330,000 active; inhibition, % (concentration not given with the values); purified proteasome/UCH37, Ub-AMC cleavage fluorescence;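 active means mean of two replicates above 20%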;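 further: 0% = compound-free wells with enzyme and 100% = wells lacking proteasome; stock transfer was 100 nL into about 20 µL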
Target sequence (Q9Y5K5 whole entry, looked up): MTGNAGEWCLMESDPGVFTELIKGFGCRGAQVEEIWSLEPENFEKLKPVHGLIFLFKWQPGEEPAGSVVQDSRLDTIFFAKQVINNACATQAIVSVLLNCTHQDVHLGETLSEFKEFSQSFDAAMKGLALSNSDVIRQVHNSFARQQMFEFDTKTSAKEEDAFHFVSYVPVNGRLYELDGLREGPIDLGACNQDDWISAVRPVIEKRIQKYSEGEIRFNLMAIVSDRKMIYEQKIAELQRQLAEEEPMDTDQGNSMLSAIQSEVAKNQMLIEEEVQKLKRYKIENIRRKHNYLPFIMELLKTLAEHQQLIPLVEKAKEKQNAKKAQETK
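Material: Human UCH37 enzyme supplied as purified proteasome complex | Schedule: 30 min preincubation with enzyme, 25 min cleavage at room temperature | Detection: AMC fluorescence 355/460 nm | Measure: % inhibition of Ub-AMC cleavage fluorescence | Controls: Wells without proteasome as full block, compound-free enzyme plus substrate as uninhibited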
Vif TR-FRET – inhibitors of Vif binding to APOBEC3G peptide, primary screen, biochemical, TR-FRET, GST-Vif 1-94, biotin-A3G peptide, dose response retest (AID 1117319) | 0.57% of 260,000 active | TR-FRET GST-Vif / biotin-A3G peptide binding; higher % means a stronger effect; test concentration not given here; strong numbers were not always called active | inhibition, %; hits with a dose series show IC50 in µM;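 active means above the screen mean plus three standard deviations and confirmed in dose response; inconclusive means results disagree or hit not tested in dose response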;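 further: Vif residues 1-94 fused to GST binding biotinylated APOBEC3G peptide 110-148; 0% = full assay without inhibitor and 100% = GST in place of GST-Vif; retest series ran down from 100 µM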
E coli growth – E. coli growth inhibition | Escherichia coli growth, OD600, 23 h; stronger effect = lower value | OD600 absorbance (test concentration not listed) | 0.21% of 330,000 active;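 active means OD600 absorbance below the run mean of sample wells minus 3.6 SD, in any replicate, cut at about 0.56 in these data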;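 further: stock transfer was 300 nL into about 60 µL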
B2AR ag – agonists of human beta-2 adrenergic receptor inducing internalization | P07550 | Am2.2-beta2AR cells, FAP receptor internalization, flow cytometry; reference of the scale not given here | response, % (concentration not given with the values) | 0.43% of 340,000 active | AID 504454;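 active means response above a set limit, near 3 SD of response in nonfluorescent compounds, cut at about 42% in these data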;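 further: stock transfer was 100 nL into about 11 µL; a reference agonist was the positive control; negative values mostly stem from fluorescent compounds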
Target sequence (P07550 whole entry, looked up): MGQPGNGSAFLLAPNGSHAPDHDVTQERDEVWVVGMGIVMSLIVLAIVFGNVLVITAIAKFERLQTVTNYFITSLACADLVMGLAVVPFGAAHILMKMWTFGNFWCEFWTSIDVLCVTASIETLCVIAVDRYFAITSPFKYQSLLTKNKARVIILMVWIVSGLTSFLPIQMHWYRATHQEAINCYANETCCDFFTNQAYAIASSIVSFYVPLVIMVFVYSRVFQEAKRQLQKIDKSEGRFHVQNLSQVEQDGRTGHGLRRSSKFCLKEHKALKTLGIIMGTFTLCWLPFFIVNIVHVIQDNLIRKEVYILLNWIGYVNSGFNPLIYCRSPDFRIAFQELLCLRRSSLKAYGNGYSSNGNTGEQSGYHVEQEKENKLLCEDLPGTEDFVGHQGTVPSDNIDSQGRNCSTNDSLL
LANA-H2B inh – blocks KSHV LANA binding to histone H2A/H2B; cell-free LANA-H2A/H2B peptide, fluorescence polarization; AID 2629; 0.6% of 320,000 active; inhibition, % (no concentration beside the values); in the data active means inhibition mostly above about 10%, no sharp cut-off; inactive means mostly below about 6.7%;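 further: stock transfer was 7.5 nL into about 10 µL; 0% = median of vehicle wells and 100% = median of positive control wells; one replicate is shown; the record names a cut of 25% in any replicate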
The depositor's hits bear a star; ? = inconclusive; . = not tested or not shown.

SMILES	HNF4A DNA FP	Bfl-1 A1 inh	UCH37 inh	Vif TR-FRET	E coli growth	B2AR ag	LANA-H2B inh
O=C(NCc1cccnc1)C1CCN(S(=O)(=O)c2cc([N+](=O)[O-])ccc2Cl)CC1	-2.7	-0.2	3.0	4%	0.68	-4	0.6
O=C(Nc1ccc(-c2n[nH]c(=S)o2)cc1)c1ccccc1Cl	1.3	-4.3	9.3	.	0.71	-11	0.4
O=C(N/N=C/C1CCCCC1)c1ccccn1	-0.3	-1.2	.	0%	.	-2	-1.3
CC(C)(C)c1ccc(O)c(N)c1	.	-0.5	.	30%	.	.	-2.5
CC(=O)N1CCN(S(=O)(=O)c2cccc(C(=O)N(Cc3ccccc3)c3ccc(C)cc3)c2)CC1	4.3	0.3	5.0	3%	0.68	11	-3.5
CCCCCC(=O)NC(=S)NNC(=O)c1ccc([N+](=O)[O-])cc1	2.7	0.8	-1.0	.	0.66	-4	-1.6
FC(F)(F)c1cc(-c2cccs2)nc(-n2cc(Cl)cn2)n1	-3.5	1.0	-38	-7%	0.73	-12	-5.6
CCOC(=O)Cn1nc(/C=C/c2ccc(C(C)C)cc2)ccc1=O	-1.3	0.3	-29	12%	0.72	0	0.8
N#Cc1ccc(N2CCN(C(=O)c3cccs3)CC2)c(F)c1	-2.4	1.7	4.0	.	0.65	2	3.5
CCOC(=O)C1(Cc2ccccc2)CCCN(CCO)C1 (stereo not drawn)	4.6	0.4	-1.1	.	0.66	-3	5.3
CCCc1nnc(SCc2ccc(OCC)cc2)n1N	1.8	-0.4	-0.6	3%	0.7	7	-8.0
Cc1cc(NCCCN2CCOCC2)n2ncc(-c3ccc(Cl)cc3)c2n1	-0.1	0.3	-92	-3%	0.67	4	4.8
COc1ccc(C(=O)Nc2cc(=O)n(C)c(=O)n2C)cc1	-0.9	0.5	0.2	8%	0.71	-6	3.8
CC(OC(=O)c1cccc(-n2cnnn2)c1)C(=O)Nc1cccc(Cl)c1 (stereo not drawn)	1.3	-0.1	4.3	-1%	0.69	10	-6.4
CCN(C[C@H]1N[C@@](CC)(C(=O)OC)[C@H]2C(=O)N(Cc3ccccc3)C(=O)[C@@H]12)S(=O)(=O)c1ccc(OC(F)(F)F)cc1	3.1	.	4.4	3%	0.73	4	.
CCOc1ccccc1N1CCN(C(=O)[C@@H]2CCCN2C2=NS(=O)(=O)c3ccccc32)CC1	4.8	0.0	1.8	4%	0.66	-4	13
O=C(NCCN1CCCC1)c1ccc(Cl)cc1	1.5	1.0	4.7	1%	0.73	-2	-0.1
COc1ccc(C(O)C(CN2CCOCC2)c2ccccc2)cc1F (stereo not drawn)	-2.5	-0.3	0.3	-2%	0.72	12	4.9
CCOc1ccc(CNC(=O)CCS(=O)(=O)Cc2cccc(Cl)c2)cc1OC	1.4	0.7	3.2	-2%	0.73	-3	-2.4
O=C(NN1C(=O)c2ccccc2NC1c1ccccn1)c1ccc(Br)cc1 (stereo not drawn)	-2.3	0.1	-20	-2%	0.7	2	2.9
Cc1cccc(C)c1OCc1cc(C(=O)N2CCC[C@H]2C(N)=O)no1	-1.1	-0.5	2.5	-7%	0.62	2	-2.0
CNc1ccc(C(=O)OCC(=O)Nc2ccnn2C(C)C)cc1[N+](=O)[O-]	-2.9	-0.4	5.6	5%	0.71	8	-2.3
CCOC(=O)CSc1nc2cc3c(cc2cc1C)OCO3	-1.4	-0.5	3.0	10%	0.74	2	0.4
COc1ccc(CCNC(=O)CCC(=O)Nc2ccc3nc(N4CCN(C)CC4)cc(C)c3c2)cc1OC	0.5	0.0	-16	-13%	0.69	-3	0.6
COc1cc(SC)ccc1C(=O)Nc1ncc(C)s1	-1.3	-7.3	-18	0%	0.64	5	-2.2
O=C(c1cccc(S(=O)(=O)NCc2ccc3c(c2)OCO3)c1)N1CCCC1	-1.8	-1.0	2.6	.	0.71	-1	-5.2
CCCn1c(N)c(C(=O)CN(C)CC(=O)Nc2c(C)cc(C)cc2C)c(=O)[nH]c1=O	-3.6	.	2.5	3%	0.69	-1	.
CC1(C(=O)NCc2ccc(Cl)c(Cl)c2)Oc2ccccc2NC1=O (stereo not drawn)	-2.0	0.0	-0.7	.	0.64	5	1.8
CCOC(=O)c1[nH]c(C)c(C(=O)OCC(=O)NCc2ccc(OC)c(OC)c2)c1C	2.3	-1.3	1.9	9%	0.65	5	-2.4
C=CCN(C(=O)CCC(=O)Nc1cc(C)on1)C(C(=O)NC1CCCC1)c1ccc(CC)cc1 (stereo not drawn)	-2.2	?	5.4	.	0.64	-11	1.1
CCCCC1=CC2=C(c3ccco3)C(=O)C(C)(OC(=O)c3ccc(OC)cc3)C(=O)C2=CN1CC(C)C (stereo not drawn)	-2.1	-0.8	3.9	-2%	0.73	35	-2.5
C/C=C(\C)CN1CCN(c2ccccc2F)CC1	1.6	-0.3	4.3	2%	0.7	-6	-4.5
O=c1c2cc(NC(=S)NC3CCN(Cc4ccccc4)CC3)ccc2nc2n1CCCCC2	-5.5	0.4	-3.7	-2%	0.69	2	4.9
CC(CSc1nc2ccccc2s1)Cn1c(N2CCCC2)nc2c1c(=O)[nH]c(=O)n2C (stereo not drawn)	-0.7	0.1	-0.7	4%	0.74	-12	-2.8
COCCNC(=O)C(C)OC(=O)c1nsc(Cl)c1Cl (stereo not drawn)	-1.9	0.0	-0.7	32%	0.7	-1	2.3
N#C/C(=C/c1ccc(Br)s1)C(=O)NCCc1c[nH]c2ccccc12	1.0	0.2	4.7	-12%	0.67	-11	4.7
CN(/N=C/c1cc(Cl)cc(Cl)c1O)c1c(Cl)cccc1[N+](=O)[O-]	5.6	2.1	.	12%	.	16	-8.0
CCOC(=O)Cc1csc(SCC(=O)NC2CCCCC2)n1	-0.7	0.0	3.7	-2%	0.7	10	1.3
Cc1ccc(C(C)NC(=O)C2CCCO2)cc1C (stereo not drawn)	4.3	-0.1	1.7	3%	0.64	-6	-8.6
COc1ccc(-c2cc(C3CC3)nc3sc(C#N)c(N)c23)cc1	0.5	-0.3	-23	?	0.69	-7	-2.1
S=C(Nc1ccccc1)N1CCn2c1nc1ccccc12	-3.8	-0.3	0.6	2%	0.65	-23	-5.1
COc1ccc(/C=N/NC(=O)c2ccn[nH]2)cc1CN1CCOCC1	5.7	0.1	.	6%	.	7	-0.5
C=CCN(Cc1nc(-c2ccccc2)no1)C(=O)c1ccoc1C	-1.6	0.5	2.0	-7%	0.69	-1	1.4
CCn1c(SCC(=O)N2CCN(c3ccccc3F)CC2)nnc1-c1ccoc1C	1.8	0.0	-2.3	-4%	0.76	5	-1.8
CC(Sc1ncn[nH]1)C(=O)Nc1ccc(Cl)cn1 (stereo not drawn)	-0.4	-1.5	-2.8	-6%	0.62	0	3.6
COc1cccc(CNC(=O)C2=C(C)C(=O)OC23CCC(C)CC3)c1 (stereo not drawn)	0.2	1.0	1.2	-3%	0.71	2	7.9
O=C(OCCCCN1C(=O)c2ccccc2C1=O)c1ccc(S(=O)(=O)N2CCCC2)cc1	-1.4	-0.9	-6.5	-3%	0.77	-5	4.4
COC(=O)[C@]1(Cc2ccccc2)N[C@H](CN(C)C(C)=O)[C@@H]2C(=O)N(C)C(=O)[C@@H]21	-0.5	.	1.9	-5%	0.69	1	.
C=CCn1c(CNc2ccc(C)cc2)nnc1SCC(=O)N/N=C/c1ccc(O)cc1	0.8	0.4	.	9%	.	3	-0.7
Cc1cc(N2CCOCC2)nc2ccc(NC(=O)C3CCC(C)CC3)cc12 (stereo not drawn)	-0.2	-0.4	-61	-18%	0.74	12	0.3
COC(=O)c1cccc(S(=O)(=O)N(Cc2ccco2)Cc2cc3cc(OC)c(OC)cc3[nH]c2=O)c1	5.0	-0.5	-25	-1%	0.74	-2	2.4
CCOC(=O)c1cc(C#N)c(SC)nc1C	-2.2	-1.5	5.6	.	0.68	4	-0.2
CCCc1cc(=O)oc2cc(OCC(=O)Nc3ccc(CN4CCOCC4)cc3)c(Cl)cc12	-3.6	1.2	-8.3	.	0.71	11	-2.0
O=C(NC1CCCC1)c1cc(=O)[nH]c2ccccc12	-0.8	1.7	-22	7%	0.7	-2	-1.1
O=C(Nc1ccc(F)cc1)c1ccccc1NC(=O)C1CC=CCC1C(=O)O (stereo not drawn)	0.5	0.6	0.6	.	0.71	3	3.8
CC(=O)c1c(N2CCN(c3ccc(F)cc3)CC2)nc(=S)n(Cc2ccccc2)c1C	3.8	1.1	6.1	32%	0.72	13	-2.2
Nc1ncc(Br)cc1Br	2.1	0.6	-0.1	21%	0.68	1	.
CCC(C)NC(=O)C1CCN(C(=O)COc2ccc3c4c(c(=O)oc3c2C)CCCC4)CC1 (stereo not drawn)	4.0	0.6	-25	-1%	0.64	-6	1.2
O=c1ccc(S(=O)(=O)N2CCCC2)c[nH]1	7.6	-0.3	-1.0	.	0.63	6	-7.4
NCCN=C1NS(=O)(=O)c2ccccc21	-4.5	0.7	1.8	?	0.68	5	4.2

Structural class, those above containing a cyano group
SMILES	HNF4A DNA FP	Bfl-1 A1 inh	UCH37 inh	Vif TR-FRET	E coli growth	B2AR ag	LANA-H2B inh
N#Cc1ccc(N2CCN(C(=O)c3cccs3)CC2)c(F)c1	-2.4	1.7	4.0	.	0.65	2	3.5
N#C/C(=C/c1ccc(Br)s1)C(=O)NCCc1c[nH]c2ccccc12	1.0	0.2	4.7	-12%	0.67	-11	4.7
COc1ccc(-c2cc(C3CC3)nc3sc(C#N)c(N)c23)cc1	0.5	-0.3	-23	?	0.69	-7	-2.1
CCOC(=O)c1cc(C#N)c(SC)nc1C	-2.2	-1.5	5.6	.	0.68	4	-0.2

Going on with the list:
SMILES	HNF4A DNA FP	Bfl-1 A1 inh	UCH37 inh	Vif TR-FRET	E coli growth	B2AR ag	LANA-H2B inh
CCOc1cc(C(=O)Nc2cc(C)ccc2C)ccc1OCC(=O)N1CCCCC1	-0.9	0.9	3.0	.	0.66	-4	5.2
Cc1cc(C)n(-c2nc3ccccc3nc2Nc2ccc3[nH]c(=O)[nH]c3c2)n1	-3.0	-0.6	6.4	6%	0.72	15	-3.1
CC1=C(C(=O)Nc2ccccc2)C(c2cccc([N+](=O)[O-])c2)Nc2nc3ccccc3n21 (stereo not drawn)	3.2	0.4	6.6	1%	0.74	-6	-1.0
COc1cccc(OC)c1C(=O)NC(C)CCc1ccccc1 (stereo not drawn)	1.4	-0.4	0.5	.	0.7	-11	5.1
Oc1ccc(Cc2ccc(Cl)cc2)c(O)c1	-5.4	0.4	.	-5%	.	-12	-1.2
O=C(Nc1ncc([N+](=O)[O-])s1)c1cccc([N+](=O)[O-])c1	4.1	-8.5	.	2%	.	17	6.5
CC(C)(C)OC(=O)NCCCC[C@H](NC(=O)c1nc[nH]c1C(=O)NCc1ccc(CNC(=O)OC(C)(C)C)cc1)C(=O)OC(C)(C)C	1.0	-0.7	1.2	.	0.82	-3	3.0
COc1cccc(CNC(C)C(=O)Nc2ccc3c(c2)OCCO3)c1 (stereo not drawn)	10	1.4	1.1	.	0.7	2	4.2
COc1ccccc1C(=O)COC(=O)c1ccccc1OCC(=O)Nc1ccc(SC(F)F)cc1	-1.1	-0.1	4.0	-2%	0.73	3	-1.9
CCOCc1c(C(=O)OCC(=O)Nc2ccccc2C(N)=O)oc2ccccc12	0.6	.	4.9	-12%	0.71	-3	.
O=C(CSc1ncn[nH]1)Nc1nnc(-c2ccccc2)s1	0.2	-1.6	4.4	4%	0.7	0	-2.5
Cn1cccc1/C=N/n1c(-c2ccco2)n[nH]c1=S	-0.8	-0.9	.	0%	.	-5	-2.4
